MEKK2 WT-MEK5 = raises or lowers MEK5 binding to wildtype human MEKK2 PB1 domain; bead flow cytometry, Alexa488-MEK5 binding to MEKK2 WT; actives lie on both sides; binding response (% of control), % at 10 µM; Q9Y2U5; AID 1531; actives 1.1% (n = 290,000); in the data active = binding response below about 67% or above about 130%
MEKK2mut PB1 HTS = signal of MEK5 binding to mutant human MEKK2 PB1 domain | AID 1530 | percent response, % at 10 µM | bead flow cytometry, Alexa488-MEK5 binding to MEKK2 mutant | actives 0.35% (n = 290,000); in the data active = percent response above about 24%, passing the limit was not always enough; note: inactives centre near 1; some results filed as inactive read as strong as hits
NALP1 inh = blocks the NALP1 inflammasome reconstituted in yeast | S. cerevisiae NALP1/ASC/caspase-1 growth, X-gal OD620, 72 h | inhibition, % at 10 µM | actives 0.61% (n = 280,000) | AID 2071; in the data active = inhibition mostly above about 24%, no sharp cut-off; inactive = mostly below about 32%; note: some compounds called inactive have numbers as strong as hits
OXTR potentiate = potentiates the human oxytocin receptor response; CHO-OTR cells, Fluo-8 calcium fluorescence, potentiator mode; 0% = oxytocin EC15, 100% = EC100; activation, % at 3 µM; actives 0.061% (n = 320,000);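 active = activation above that plate's cutoff, the mean activation of tested compounds plus 3 SD, cut at about 6.6% in these data, passing the limit was not always enough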;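 note: 100% uses oxytocin at 75 nM as the full agonist control; some results filed as inactive read as strong as hits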
Target sequence (P30559 whole entry, looked up): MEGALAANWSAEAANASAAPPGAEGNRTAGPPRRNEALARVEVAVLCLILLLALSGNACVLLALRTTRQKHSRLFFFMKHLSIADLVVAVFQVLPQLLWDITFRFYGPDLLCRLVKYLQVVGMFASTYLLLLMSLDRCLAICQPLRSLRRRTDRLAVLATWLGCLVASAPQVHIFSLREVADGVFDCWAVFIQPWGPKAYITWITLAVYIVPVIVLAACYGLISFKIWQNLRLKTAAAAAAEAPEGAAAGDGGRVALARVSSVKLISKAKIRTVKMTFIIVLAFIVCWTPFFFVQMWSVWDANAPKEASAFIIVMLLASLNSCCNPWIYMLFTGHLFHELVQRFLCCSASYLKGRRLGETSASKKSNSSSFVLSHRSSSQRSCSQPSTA
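Dosing: Single dose, 3.0 µM nominal final compound concentration | Material: Human OTR in CHO cells | Technique: Kinetic Fluo-8 calcium fluorescence | Benchmarks: EC15 oxytocin alone as 0%, 75 nM oxytocin as 100% | Probe or stimulus: Oxytocin at about EC15, sub-maximal agonist stimulus | Incubation: Compound 6 min at room temperature before oxytocin, 100 s read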
GalR3 antagonist = blocks the human galanin receptor 3. AID 651719. O60755. inhibition, % at 3 µM. HEK293 GalR3-CNG cAMP membrane potential fluorescence; galR3 body fused to GalR1 C-terminus. actives 0.44% (n = 360,000);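 active = inhibition above the screen-wide average plus 3 SD, cut at about 13% in these data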;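 note: forskolin and galanin both at EC90 stimulate the cells; cAMP rise reported by CNG channel membrane potential dye signal; 0% = forskolin plus galanin with DMSO and 100% = forskolin alone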
Target sequence (O60755 1-299 limits assumed): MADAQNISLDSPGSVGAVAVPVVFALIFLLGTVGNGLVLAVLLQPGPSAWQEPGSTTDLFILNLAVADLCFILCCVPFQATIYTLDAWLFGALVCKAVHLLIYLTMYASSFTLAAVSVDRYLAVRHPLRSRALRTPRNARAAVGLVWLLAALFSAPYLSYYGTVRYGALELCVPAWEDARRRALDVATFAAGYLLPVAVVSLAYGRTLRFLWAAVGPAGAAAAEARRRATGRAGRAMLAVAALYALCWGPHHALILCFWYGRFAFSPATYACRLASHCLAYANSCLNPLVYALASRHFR
PfM18AAP inh = blocks P. falciparum M18 aspartyl aminopeptidase; recombinant PfM18AAP, H-Glu-NHMec fluorogenic cleavage; inhibition, % at 7.35 µM; actives 1.2% (n = 290,000); AID 1822;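 active = inhibition above the campaign mean inhibition over all tested compounds plus 3 SD, cut at about 28% in these data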;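 note: 0% = plate median of test compound wells and 100% = 2 mM ZnCl2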
GPR7 antag = antagonists of human GPR7 (neuropeptides B/W receptor 1). actives 1.1% (n = 290,000). inhibition, % at 4.4 µM. AID 1861. GPR7-expressing cells, fluorescence antagonist assay. P48145; in the data active = inhibition above about 16%, passing the limit was not always enough;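 note: cells stimulated with the agonist NPW; 0% = agonist with vehicle and 100% = vehicle without agonist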
Target sequence (P48145 whole entry, looked up): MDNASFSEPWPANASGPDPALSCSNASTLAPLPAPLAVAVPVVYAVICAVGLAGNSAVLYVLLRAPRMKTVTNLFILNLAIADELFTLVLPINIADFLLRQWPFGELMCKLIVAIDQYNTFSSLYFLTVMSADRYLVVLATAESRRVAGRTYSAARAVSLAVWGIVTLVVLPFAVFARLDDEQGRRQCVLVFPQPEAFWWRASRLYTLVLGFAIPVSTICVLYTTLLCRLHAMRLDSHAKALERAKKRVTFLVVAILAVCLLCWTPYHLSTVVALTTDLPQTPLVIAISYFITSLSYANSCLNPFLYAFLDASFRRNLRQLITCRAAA
The depositor's hits bear a star; nt = not tested or not shown; & = joins results of further samples; ! = not confirmed by another sample. A portion of the library. The share of hits here may be higher or lower than overall.

SMILES | MEKK2 WT-MEK5 | MEKK2mut PB1 HTS | NALP1 inh | OXTR potentiate | GalR3 antagonist | PfM18AAP inh | GPR7 antag
CC(C)(C)NC[C@H](O)COc1nsnc1N1CCOCC1 | 95 | 6 | 14 | 1&-2 | -6 | 4 | -10
CCCCc1nc(Cl)c(CO)n1Cc1ccc(-c2ccccc2-c2nnn[nH]2)cc1 | 104 | 2 | nt | 0 | nt | nt | nt
CN(C)CC/C=C1/c2ccccc2COc2ccccc21 | 111&109 | 4&6 | 10 | -4 | nt | 3 | 7
Cc1ccccc1N1C(=O)c2cc(S(N)(=O)=O)c(Cl)cc2NC1C (configuration not stated) | nt | nt | nt | -6 | -3 | nt | nt
CC(=O)C1CCC2C3CCC4CC(=O)CCC4(C)C3C=CC12C (configuration not stated) | nt | nt | nt | nt | -5 | nt | nt
CC(C)[C@H](NC(=O)[C@H](CC(=O)O)NC(=O)[C@H](CCCCN)NC(=O)[C@@H](N)CCCN=C(N)N)C(=O)N[C@@H](Cc1ccc(O)cc1)C(=O)O | 96 | -2 | 16 | 6 | nt | 2 | -4
O=C1CCc2ccc(OCCCCN3CCN(c4cccc(Cl)c4Cl)CC3)cc2N1 | 177*! | 15&15 | 22 | -10 | -6 | 13 | 20
CN/C(=C\[N+](=O)[O-])NCCSCc1ccc(CN(C)C)o1 | nt | nt | nt | -8 | 1 | nt | nt
C[C@]12C=CC(=O)C=C1CC[C@@H]1[C@@H]2C(=O)C[C@@]2(C)[C@H]1CC[C@]2(O)C(=O)CO | 106 | 7 | 0 | -1&5 | -4&-4 | -6 | 8
CN(C)N=Nc1nc[nH]c1C(N)=O | nt | nt | nt | 5 | -3 | nt | nt
C[C@@H]1O[C@@H]1P(=O)(O)O | nt | nt | nt | -3 | -3 | nt | nt
CC(C)NC[C@H](O)COc1cccc2ccccc12 | 112 | 4 | nt | -4 | -6 | nt | nt
COc1cc(NS(C)(=O)=O)ccc1Nc1c2ccccc2nc2ccccc12 | nt | nt | nt | -8 | -4 | nt | nt
CN(C/C=C/c1ccccc1)Cc1cccc2ccccc12 | nt | nt | nt | -8 | nt | nt | nt
CC12C=CC(=O)C=C1CCC1C2C(=O)C[C@@]2(C)C1CCC2(O)C(=O)CO (some centres not stated) | 110 | 6 | nt | -2 | nt | nt | nt

Rewritten with two lines to a compound: entries from further up.
Every second line gives: MEKK2 WT-MEK5 | MEKK2mut PB1 HTS | NALP1 inh | OXTR potentiate | GalR3 antagonist | PfM18AAP inh | GPR7 antag
CN/C(=C\[N+](=O)[O-])NCCSCc1ccc(CN(C)C)o1
  nt | nt | nt | -8 | 1 | nt | nt
C[C@]12C=CC(=O)C=C1CC[C@@H]1[C@@H]2C(=O)C[C@@]2(C)[C@H]1CC[C@]2(O)C(=O)CO
  106 | 7 | 0 | -1&5 | -4&-4 | -6 | 8

15 consecutive records already listed, quoted:
SMILES | MEKK2 WT-MEK5 | MEKK2mut PB1 HTS | NALP1 inh | OXTR potentiate | GalR3 antagonist | PfM18AAP inh | GPR7 antag
CC(C)(C)NC[C@H](O)COc1nsnc1N1CCOCC1 | 95 | 6 | 14 | 1&-2 | -6 | 4 | -10
CCCCc1nc(Cl)c(CO)n1Cc1ccc(-c2ccccc2-c2nnn[nH]2)cc1 | 104 | 2 | nt | 0 | nt | nt | nt
CN(C)CC/C=C1/c2ccccc2COc2ccccc21 | 111&109 | 4&6 | 10 | -4 | nt | 3 | 7
Cc1ccccc1N1C(=O)c2cc(S(N)(=O)=O)c(Cl)cc2NC1C (configuration not stated) | nt | nt | nt | -6 | -3 | nt | nt
CC(=O)C1CCC2C3CCC4CC(=O)CCC4(C)C3C=CC12C (configuration not stated) | nt | nt | nt | nt | -5 | nt | nt
CC(C)[C@H](NC(=O)[C@H](CC(=O)O)NC(=O)[C@H](CCCCN)NC(=O)[C@@H](N)CCCN=C(N)N)C(=O)N[C@@H](Cc1ccc(O)cc1)C(=O)O | 96 | -2 | 16 | 6 | nt | 2 | -4
O=C1CCc2ccc(OCCCCN3CCN(c4cccc(Cl)c4Cl)CC3)cc2N1 | 177*! | 15&15 | 22 | -10 | -6 | 13 | 20
CN/C(=C\[N+](=O)[O-])NCCSCc1ccc(CN(C)C)o1 | nt | nt | nt | -8 | 1 | nt | nt
C[C@]12C=CC(=O)C=C1CC[C@@H]1[C@@H]2C(=O)C[C@@]2(C)[C@H]1CC[C@]2(O)C(=O)CO | 106 | 7 | 0 | -1&5 | -4&-4 | -6 | 8
CN(C)N=Nc1nc[nH]c1C(N)=O | nt | nt | nt | 5 | -3 | nt | nt
C[C@@H]1O[C@@H]1P(=O)(O)O | nt | nt | nt | -3 | -3 | nt | nt
CC(C)NC[C@H](O)COc1cccc2ccccc12 | 112 | 4 | nt | -4 | -6 | nt | nt
COc1cc(NS(C)(=O)=O)ccc1Nc1c2ccccc2nc2ccccc12 | nt | nt | nt | -8 | -4 | nt | nt
CN(C/C=C/c1ccccc1)Cc1cccc2ccccc12 | nt | nt | nt | -8 | nt | nt | nt
CC12C=CC(=O)C=C1CCC1C2C(=O)C[C@@]2(C)C1CCC2(O)C(=O)CO (some centres not stated) | 110 | 6 | nt | -2 | nt | nt | nt

Next part.
SMILES | MEKK2 WT-MEK5 | MEKK2mut PB1 HTS | NALP1 inh | OXTR potentiate | GalR3 antagonist | PfM18AAP inh | GPR7 antag
COc1ccc2[nH]cc(CCNC(C)=O)c2c1 | 106 | 44* | nt | -3 | -4 | nt | nt
CN(C)CCC(c1ccc(Br)cc1)c1ccccn1 (configuration not stated) | 102 | 4 | 17 | -3&1 | -4 | -2 | -5
Nc1ncnc2c1ncn2C1OC(CO)C(O)C1O (configuration not stated) | 87 | -8 | 6 | 0 | -13 | 5 | -17
Nc1ccn([C@@H]2O[C@H](CO)[C@@H](O)[C@H]2O)c(=O)n1 | nt | nt | nt | nt | -4 | nt | nt
CC(C)NC[C@@H](O)COc1cccc2ccccc12 | nt | nt | nt | -3 | -7 | nt | nt
OCCOCCN1CCN(C2=Nc3ccccc3Sc3ccccc32)CC1 | 104&104&87 | 2&5&-8 | 8&17 | -5&-6 | 3 | 5&-6 | -17&15
OCC(O)[C@@H](O[C@H]1O[C@H](CO)[C@@H](O)[C@H](O)[C@H]1O)[C@H](O)[C@@H](O)CO (some centres not stated) | nt | nt | nt | -3 | -4 | nt | nt
CN1CCN(CCCN2c3ccccc3Sc3ccc(C(F)(F)F)cc32)CC1 | 168* | 16&22 | 36&9 | -16 | -8&-8&-5 | 0&-3 | 18&14
CC(=O)O[C@H]1C(=O)[C@]2(C)[C@H]([C@H](OC(=O)c3ccccc3)[C@]3(O)C[C@H](OC(=O)[C@H](O)[C@@H](NC(=O)c4ccccc4)c4ccccc4)C(C)=C1C3(C)C)[C@]1(OC(C)=O)CO[C@@H]1C[C@@H]2O | 93 | nt | nt | -5 | -3 | nt | nt
CC(=O)C1(O)CCC2C3CC(C)C4=CC(=O)C=CC4(C)C3(F)C(O)CC21C (configuration not stated) | nt | nt | nt | nt | -5 | nt | nt
CC(c1cc2ccccc2s1)N(O)C(N)=O (configuration not stated) | 103&105 | 2&2 | 0 | -3 | nt | 8 | -14
CN(C)CC/C=C1\c2ccccc2Sc2ccc(Cl)cc21 | 164* | 17 | 32 | -9 | nt | -3 | 7
C=C(CC)C(=O)c1ccc(OCC(=O)O)c(Cl)c1Cl | 98 | 2 | 78* | -5 | -2 | -22 | 0
CC(C)(O)c1ccccc1CC[C@@H](SCC1(CC(=O)O)CC1)c1cccc(/C=C/c2ccc3ccc(Cl)cc3n2)c1 | 94 | 0 | nt | -8 | nt | nt | nt
CN1C(=O)OC(C)(C)C1=O | 104 | 2 | nt | -1 | nt | nt | nt
CC(=O)CC(c1ccc([N+](=O)[O-])cc1)c1c(O)c2ccccc2oc1=O (configuration not stated) | 95 | 0 | 23 | -7 | nt | -15 | -3
CN1[C@@H]2CC[C@H]1CC(OC(=O)c1c[nH]c3ccccc13)C2 (some centres not stated) | 101 | 4 | nt | 0 | -2 | nt | nt
CN[C@@H]1CC[C@H](c2ccc(Cl)c(Cl)c2)c2ccccc21 | 121 | 12 | 13 | nt | -15 | 0 | 32
CCC(=O)OCC(=O)C1(OC(=O)CC)[C@H](C)C[C@H]2[C@H]3[C@H]([C@@H](O)C[C@@]21C)[C@@]1(C)C=CC(=O)C=C1C[C@H]3Cl (some centres not stated) | nt | nt | nt | 2 | nt | nt | nt
CCN1CCC[C@H]1CNC(=O)c1c(OC)ccc(Br)c1OC | nt | nt | nt | 2 | 6 | nt | nt
COc1ccc(C(=O)NCc2cccnc2)cc1C(=O)NCc1cccnc1 | nt | nt | nt | -3 | 0 | nt | nt
CCC1(c2ccccc2)NC(=O)N(C)C1=O (configuration not stated) | nt | nt | nt | -3 | nt | nt | nt
CCCC(=O)Nc1ncnc2c1ncn2[C@@H]1O[C@@H]2COP(=O)(O)O[C@H]2[C@H]1OC(=O)CCC | 96 | 1 | 18 | -3 | -2&-1 | -8 | 5
CC(C)Oc1ccc2c(=O)c(-c3ccccc3)coc2c1 | 80&102 | 2&2 | 49&12 | -8 | nt | 1&0 | -7&-18
CC(C)NCC(O)c1ccc(NS(C)(=O)=O)cc1 (configuration not stated) | 119&98 | 6&0 | 5 | -3 | -6 | 1 | -8
COc1cc(C(=O)OCCCN2CCCN(CCCOC(=O)c3cc(OC)c(OC)c(OC)c3)CC2)cc(OC)c1OC | 123 | 4 | nt | -11 | -1 | nt | nt
Nc1ccc(C(=O)O)c(O)c1 | 81&99&105 | -14&-1&4 | 3&24&4 | -8&-4&-3&-6 | -1 | 33*! | -4&-10&-11
Cc1ccc(/C(=C\CN2CCCC2)c2ccccn2)cc1 | 114 | 7 | 0 | -14 | nt | nt | nt
Nc1ncn([C@@H]2O[C@H](CO)[C@@H](O)[C@H]2O)c(=O)n1 | nt | nt | nt | -3 | -2 | nt | nt
CC1=NS(=O)(=O)c2cc(Cl)ccc2N1 | 93 | 4 | 25 | -5 | nt | 8 | -10
Cc1noc(NS(=O)(=O)c2ccc(N)cc2)c1C | 103&103 | 3&-1 | 19 | -6 | 7 | -4 | -6
CC(C)n1c(/C=C/[C@H](O)C[C@H](O)CC(=O)O)c(-c2ccc(F)cc2)c2ccccc21 | nt | nt | nt | -3 | nt | nt | nt
Nc1nc(N)nc(-c2cc(Cl)ccc2Cl)n1 | 109 | 3 | nt | -8 | -3 | nt | nt
CN(C)CC[C@@H](c1ccc(Br)cc1)c1ccccn1 | 112 | 4 | nt | -1 | nt | nt | nt
COc1ccc2cc(CCC(C)=O)ccc2c1 | 99 | 2 | 8 | -2 | nt | -4 | 2
NC(=O)c1ncn([C@@H]2O[C@H](CO)[C@@H](O)[C@H]2O)n1 | 100 | 2 | 16 | -19 | nt | 0 | -6
Cc1cc(C(=O)NNCc2ccccc2)no1 | nt | nt | nt | -2 | 1 | nt | nt
CC(C)c1nc(CN(C)C(=O)N[C@H](C(=O)N[C@@H](Cc2ccccc2)C[C@H](O)[C@H](Cc2ccccc2)NC(=O)OCc2cncs2)C(C)C)cs1 | 107&105 | 3&5 | 4 | -7 | nt | 4 | -6
Nc1ccc(S(=O)(=O)Nc2ccccn2)cc1 | 81 | 2 | 24 | -2 | 1 | 0 | 14
OC(Cn1cncn1)(Cn1cncn1)c1ccc(F)cc1F | 108 | 5 | nt | 2 | -5 | nt | nt
NS(=O)(=O)c1cc(C(=O)O)c(NCc2ccco2)cc1Cl | 104 | 4 | nt | -12 | -3 | nt | nt

Screens: PubChem BioAssay, several laboratories
